KCNQ2 inh: KCNQ2 potassium channel inhibitors, primary screen, cell-based, CHO-K1, FluxOR thallium flux, B-score (AID 2156) | 310,000 compounds, 1.1% hits | 20 min; hits give low values; only compounds with negative scores are shown here; some inactives read as strong as hits | B-score at 10 µM;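 active = fluorescence ratio B-score at most minus 3 library SDs, with starting brightness B-score within 2 library SDs, cut at about -5.5 in these data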
Target sequence (O88943 whole entry, looked up): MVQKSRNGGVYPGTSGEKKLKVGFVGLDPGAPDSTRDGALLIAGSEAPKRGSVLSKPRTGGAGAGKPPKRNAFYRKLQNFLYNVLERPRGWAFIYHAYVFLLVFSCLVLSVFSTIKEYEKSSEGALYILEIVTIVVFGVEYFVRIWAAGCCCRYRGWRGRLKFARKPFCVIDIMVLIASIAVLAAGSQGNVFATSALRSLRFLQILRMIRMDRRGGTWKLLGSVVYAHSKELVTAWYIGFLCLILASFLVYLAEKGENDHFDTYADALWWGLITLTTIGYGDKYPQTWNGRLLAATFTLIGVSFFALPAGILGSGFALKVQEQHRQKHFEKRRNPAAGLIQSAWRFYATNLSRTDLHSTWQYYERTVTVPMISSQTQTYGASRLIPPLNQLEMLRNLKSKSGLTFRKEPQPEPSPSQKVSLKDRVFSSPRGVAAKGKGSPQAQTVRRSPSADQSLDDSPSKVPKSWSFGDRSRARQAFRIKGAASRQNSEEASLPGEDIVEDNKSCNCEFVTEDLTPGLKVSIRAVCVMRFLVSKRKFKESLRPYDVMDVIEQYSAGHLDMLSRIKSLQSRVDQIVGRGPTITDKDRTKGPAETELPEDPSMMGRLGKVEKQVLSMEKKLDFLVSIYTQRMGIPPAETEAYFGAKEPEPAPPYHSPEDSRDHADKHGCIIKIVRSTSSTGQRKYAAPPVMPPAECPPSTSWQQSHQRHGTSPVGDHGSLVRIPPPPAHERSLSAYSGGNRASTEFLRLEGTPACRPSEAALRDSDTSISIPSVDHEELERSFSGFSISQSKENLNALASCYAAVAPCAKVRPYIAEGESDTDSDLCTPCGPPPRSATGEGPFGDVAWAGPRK
KCNQ2 inh baseline: also measured in KCNQ2 inh; calls as there; B-score; measured here: initial fluorescence intensity artifact check;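 brightness before thallium and not channel activity; 0 = typical well and far values either way flag optical interference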
Active calls of the source: *; i = inactive.

SMILES	KCNQ2 inh	KCNQ2 inh baseline
Cc1cccc(NC(=O)/C(C#N)=C/c2cn(CC(=O)NCc3ccco3)c3ccccc23)c1C	i	-0.4
Cc1cc(-c2ccccc2)c2c(=O)n(-c3ccccc3)[nH]c2n1	i	0.32
O=C1NC(c2ccccc2)=CC(c2ccccc2O)N1 (stereo not given)	i	-1.2
CCCc1cc(=O)oc2c(C)c(OCc3nn[nH]n3)ccc12	i	-1.9
O=C(CC1SC2=NCCN2C1=O)Nc1ccccc1 (stereo not given)	i	-0.11
O=C(N/N=C1\CCCc2ccccc21)c1ccc([N+](=O)[O-])cc1	i	1.1
CCN1CCN(S(=O)(=O)c2ccc3c(c2)NC(=O)CS3)CC1	i	1.3
O=C(NCCc1ccccc1C(F)(F)F)C1CCC(=O)N(CCCN2CCCC2=O)C1 (stereo not given)	i	1.9
COc1ccc(CN(CC(=O)NCC2CCCO2)C(=O)CNS(=O)(=O)c2ccc(C)cc2)cc1 (stereo not given)	i	0.28
O=C(Nc1ccc(Cl)c(Cl)c1)c1cccc(S(=O)(=O)NCc2cccnc2)c1	i	2.5
Cc1[nH]c2c(C)cccc2c1CC(=O)O	i	-0.33
CCOC(=O)CN1C(=O)C(=O)N(Cc2ccccc2F)C1=O	i	-0.68
O=C(CCSc1ccccc1)N1CCOCC1	i	0.45
COc1ccc(C(=O)NCCN2CCN(C(=O)c3ccc(OC)c(OC)c3)CC2)cc1OC	i	2.1
c1ccc(-c2cc3c(nn2)CCc2nonc2-3)cc1	i	1.4
O=C1N=C2SCCN2/C1=C\c1ccccc1Cl	i	-0.59
CCOc1ccc(S(=O)(=O)N2CCCC(C(=O)N3CCN(c4ccccc4)CC3)C2)cc1 (stereo not given)	i	-0.46
C#CCNC(=O)C1CCN(c2cc(C)nc(-c3ccccc3)n2)CC1	i	1.6
CNS(=O)(=O)c1cc(Br)ccc1S(=O)c1ccccc1C(=O)O (stereo not given)	i	-2.8
O=[N+]([O-])c1ccc(Cc2cncc(O)c2)cc1	i	0.95
O=C(CN1C(=O)CSc2ccccc21)NCCC1=CCCCC1	i	0.24
COc1ccc(OC)c(-c2csc(NC(=O)CSc3ccccc3)n2)c1	i	0.77
OCCOCCn1c(C(CO)Nc2nc(-c3ccc(F)cc3)cs2)nc2ccccc21 (stereo not given)	i	0.36
N#Cc1ccc(OCC(O)CN2CCN(C(c3ccccc3)c3ccccc3)CC2)cc1 (stereo not given)	i	-0.08
CCOC(=O)C1CCN(Cc2cc(Cl)c3ccccc3c2O)CC1	i	-0.86
COCC(=O)Nc1sc2c(c1C(=O)OC)CCCC2	i	1.7
CCN1CCN(c2nc(N)c([N+](=O)[O-])c(Nc3ccc(C)cc3)n2)CC1	i	1.6
Cc1nc2ccccc2c2oc(C(=O)N3CCCC(C)C3)cc12 (stereo not given)	i	1.9
O=C(Cc1ccccc1)Nc1ccc(NC(=O)c2cccs2)c(Cl)c1	i	-0.38
O=C(Nc1cccc(Cl)c1)c1cc([N+](=O)[O-])ccc1N1CCN(CCO)CC1	i	0.67
C/C(=N\NC(=O)c1cccnc1)c1cccc([N+](=O)[O-])c1	i	0.45
CC(=O)Nc1ccc(NC(=O)CSc2ncnn2-c2ccccc2)cc1	i	0.21
Cc1cc(-c2ccccc2)c(C#N)c(SCC(N)=O)n1	i	-1.5
Cc1ccc(S(=O)(=O)Nc2ccccc2F)cc1C(=O)NNC(=O)c1csc(N2CCOCC2)n1	i	1.1
Brc1ccc(/C=N/Nc2ccccc2)cc1	i	0.69
Cc1nnc(SCC(=O)N2c3ccccc3C(C)(c3ccc(Cl)cc3)CC2(C)C)s1 (stereo not given)	i	-0.5
COc1ccc(NC(=O)CSCc2cc(=O)n3cc(C)sc3n2)cc1	i	0.47
Cc1cc(C(=O)NC(=S)Nc2cccc(C(=O)O)c2C)ccc1[N+](=O)[O-]	i	0.01
CCOC(=O)C(O)(CC(=O)c1ccc(Cl)cc1)C(=O)OCC	i	1.2
CC1CCN(c2nc3c(c(=O)n(C)c(=O)n3C)n2CCSc2nc3ccccc3s2)CC1	i	-1.4
Cc1ccc(NC(=O)CN2C(=O)N/C(=C/c3ccco3)C2=O)cc1	i	-0.75
COc1ccccc1OCC(=O)NCCS(=O)(=O)N1CCN(c2ccc(F)cc2)CC1	i	-0.99
CC1CCc2c(sc(N)c2C(=O)OC(C)C)C1 (stereo not given)	i	0.25
COc1ccccc1C(=O)Nc1ccc(C(=O)Nc2ccccc2C(=O)O)cc1	i	-1.3
CN(Cc1ccccc1)C(=O)CCC1CCN(S(C)(=O)=O)CC1	i	0.1
Cc1cc(C(=O)Nc2ccc3ccccc3c2)oc1C	i	-0.2
Cn1c(/C(C#N)=C/C2CC=CCC2)nc2ccccc21 (stereo not given)	i	0.18
COc1ccccc1C(=O)NC(CCSC)C(=O)N1CCN(C/C=C/c2ccccc2)CC1 (stereo not given)	i	0.92
O=C1CCc2ccccc2N1Cc1ccccc1	i	-0.11
COC(=O)c1ccc(C2C(C(=O)Nc3ccccc3C)=C(C)Nc3ncnn32)cc1 (stereo not given)	i	-0.95
CCCCC1=CC2=CC(=O)C(C)(OC(=O)c3cnc4ccccc4n3)C(=O)C2=CO1 (stereo not given)	i	1.6
Cc1noc(/C=C/N(C)C)c1S(=O)(=O)N1CCCC(C(=O)NCc2ccccc2Cl)C1 (stereo not given)	i	0.02
O=C(O)CCCC(=O)N1CCc2cc(S(=O)(=O)N3CCc4ccccc43)ccc21	i	-0.12
O=C(CSC(=S)N1CCCCC1)Nc1nc(-c2ccccc2)c(-c2ccccc2)o1	i	-0.34
COc1cc(CCC(=O)N2CCN(c3cccc(C)c3C)CC2)cc(OC)c1OC	i	1.3
CC(C)c1ccc(NC(=O)Nc2cnccn2)cc1	i	-0.22
COc1ccccc1NS(=O)(=O)c1ccc2oc(SC3CCOC3=O)nc2c1 (stereo not given)	i	-0.72
COc1ccc(/C=C/CN2CCN(CCc3ccccc3)C(CCO)C2)cc1 (stereo not given)	i	-1.2
CCOC(=O)C(=O)Nc1nnc(Cc2ccc(OC)c(OC)c2)s1	i	2.2
Cc1c(NC(=O)COC(=O)c2ccc(S(=O)(=O)N3CCOCC3)cc2)c(=O)n(-c2ccccc2)n1C	i	-0.09

(next part)
SMILES	KCNQ2 inh	KCNQ2 inh baseline
CN(C)C(=O)c1ccc(NC(=O)COc2ccc([N+](=O)[O-])cc2)cc1	i	0.16
CCCCNC(=O)c1sc2ncnc(N3CCc4ccccc4C3)c2c1C	i	0.37
Cc1ccc(S(=O)(=O)n2nc(-c3ccco3)nc2SCc2ccccc2)cc1	i	0.1
O=C(c1ccccc1)n1nc(-c2ccccc2)nc1NCc1ccco1	i	-0.28
CCCCc1cc(=O)oc2c(C)c(OCC(=O)N3C[C@H]4C[C@@H](C3)c3cccc(=O)n3C4)ccc12	i	-1.9
CC(=O)C1=C(c2ccc(Br)cc2)C(=O)c2ccccc2C1=O	i	-1.5
COc1cccc(CC(CC(=O)O)C(=O)Nc2cc(C)ccc2C)c1 (stereo not given)	i	0.12
COC(=O)Cn1c(=O)c2c(nc3n2CCCN3CCc2ccc(OC)c(OC)c2)n(C)c1=O	i	0.59
CCC(=O)N/C(N)=N/c1nc(C)c2cc(C)c(C)cc2n1	i	-0.38
O=C(NC1CCCC1)C1CCN(C(=O)c2ccc(Cl)cc2)CC1	i	1.3
Cc1cc(NC(=O)CSCCO)no1	i	0.12
Cc1cccc(N2CCN(C(=O)COc3cccc4c3OC(C)(C)C4)CC2)c1C	i	0.67
CCOC(=O)c1ccc(-c2ccc(CO)o2)cc1	i	-0.39
CC(C)Cc1cc(C(=O)NCc2ccco2)no1	i	-0.26
O=c1c2ccccc2ncn1-c1ccc2c(c1)OCCO2	i	1.4
O=C(c1ccc(Sc2ccc(F)cc2)c([N+](=O)[O-])c1)N1CCOCC1	i	-0.22
CN(C)/C=C/C(=O)c1cccc(C(F)(F)F)c1	i	1.1
Cc1c(C(=O)NC(C(C)C)C(C)C)cccc1[N+](=O)[O-]	i	1.8
O=C(NCc1ccccc1)c1ccc2c(c1)C(=O)N(Cc1ccncc1)C2=O	i	0.52
COc1cc(C(=O)NC2CCCC2)c(Br)c(OC)c1OC	i	0.17

Laid out differently: 6 of the compounds above
| structure | KCNQ2 inh | KCNQ2 inh baseline |
| --- | --- | --- |
| O=C(c1ccccc1)n1nc(-c2ccccc2)nc1NCc1ccco1 | i | -0.28 |
| CC(=O)C1=C(c2ccc(Br)cc2)C(=O)c2ccccc2C1=O | i | -1.5 |
| Cc1c(C(=O)NC(C(C)C)C(C)C)cccc1[N+](=O)[O-] | i | 1.8 |
| O=c1c2ccccc2ncn1-c1ccc2c(c1)OCCO2 | i | 1.4 |
| COc1cccc(CC(CC(=O)O)C(=O)Nc2cc(C)ccc2C)c1 (stereo not given) | i | 0.12 |
| O=C(NC1CCCC1)C1CCN(C(=O)c2ccc(Cl)cc2)CC1 | i | 1.3 |

Seven entries already listed, sorted by their value in KCNQ2 inh baseline, low to high.
SMILES	KCNQ2 inh	KCNQ2 inh baseline
CCCCc1cc(=O)oc2c(C)c(OCC(=O)N3C[C@H]4C[C@@H](C3)c3cccc(=O)n3C4)ccc12	i	-1.9
O=C(c1ccccc1)n1nc(-c2ccccc2)nc1NCc1ccco1	i	-0.28
CC(C)Cc1cc(C(=O)NCc2ccco2)no1	i	-0.26
Cc1ccc(S(=O)(=O)n2nc(-c3ccco3)nc2SCc2ccccc2)cc1	i	0.1
CN(C)/C=C/C(=O)c1cccc(C(F)(F)F)c1	i	1.1
O=C(NC1CCCC1)C1CCN(C(=O)c2ccc(Cl)cc2)CC1	i	1.3
Cc1c(C(=O)NC(C(C)C)C(C)C)cccc1[N+](=O)[O-]	i	1.8

Other records:
SMILES	KCNQ2 inh	KCNQ2 inh baseline
CCn1cc(CN2CCN(Cc3ccccc3)C(CCO)C2)c2ccccc21 (stereo not given)	i	-0.7
CC(C)[C@H](NC(=O)c1ccccc1)C(=O)OCC(=O)Nc1ccc(Cl)cc1C(F)(F)F	i	0.52
CC(=O)SCC(Cc1ccccc1)C(=O)NCC(=O)OCc1ccccc1 (stereo not given)	i	-0.3
COc1ccc(Cc2n[nH]c(=S)n2NC(=O)Nc2ccc(C)cc2)cc1	i	-0.26
O=C(OCc1cc2ccccc2[nH]c1=O)c1ccco1	i	-0.55
Cc1ccc2nc(-c3ccccn3)cc(C(=O)NC(C)C(C)(C)C)c2c1 (stereo not given)	i	0.81
CSc1nc(N)nc(SC2C=CCCC2)c1C#N (stereo not given)	i	-0.13
Cc1ccccc1-c1ccc(C=Nc2c(C)n(C)n(-c3ccccc3)c2=O)o1	i	-0.14
COc1ccc(C2CC(c3cccs3)=Nc3ccccc3S2)cc1OC (stereo not given)	i	-0.34
CCOP(=O)(OCC)c1ccccc1OCP(C)(=O)COc1ccccc1P(=O)(OCC)OCC	i	-2.3
O=C(Nc1nc2ccsc2c(=O)s1)c1ccc(F)cc1	i	-0.49
CCOC(=O)c1ccc(NC(=O)c2cc3c(C)nn(-c4ccccc4Cl)c3s2)s1	i	0.14
Cc1ccc(Nc2cc(-c3ccccc3)nc3ncnn23)cc1	i	-0.24
c1csc(-c2noc(CN3CCc4sccc4C3)n2)c1	i	-1.2
COc1ccc(C(=O)OCC(=O)Nc2nnc(-c3ccccc3)o2)cc1	i	-0.21
CCOC(=O)N1CCC(n2c(SCC(=O)N3CCCC3)nc3ccccc3c2=O)CC1	i	-0.42
Cc1cc(OCCN2CCCCC2)nc2ccccc12	i	15
Cc1cc(Cl)ccc1Oc1ncnc2oc(-c3ccccc3)cc12	i	-0.03
CC(=O)Nc1ccc(S(=O)(=O)Nc2cc(-c3ccccc3)nn2C)cc1	i	0.5
N#C/C(=C/c1ccc(N2CCOCC2)o1)C(=O)Nc1ccccc1	i	8.1
Cc1cc(N2CCOCC2)nc2ccc(NC(=S)NCCN(C)C)cc12	i	1.5
CCOC(=O)C1CCN(C(=O)c2ccc(CNS(=O)(=O)c3ccc(OC)cc3)cc2)CC1	i	1.5
CC(Sc1nnc(N)s1)C(=O)NC1CCCCC1C (stereo not given)	i	2.1
CCOc1ccc(NC(=O)C2C(C(=O)O)C3(Cl)C(Cl)=C(Cl)C2(Cl)C3(Cl)Cl)cc1 (stereo not given)	i	1.1
CCN1C(=O)/C(=C/N(C(C)=O)c2ccccc2)N(c2ccccc2)C1=S	-9.6*	0.57*
Cc1csc(NC(=O)CSc2nc(=O)n(CCCN(C)C)c3c2CCC3)n1	i	3.7
COc1ccccc1N(CC(O)COc1ccc(C)cc1)S(=O)(=O)c1ccccc1 (stereo not given)	i	0.96
Cc1onc(-c2ccccc2Cl)c1C(=O)NNC(=O)c1nn(C)cc1Cl	i	1
Cc1ccc(S(=O)(=O)N2CCN(Cc3cccc(F)c3)CC2)cc1	i	0.01
O=C(/C=C/c1ccccc1)N1CCN(c2cccc(Cl)n2)CC1	i	0.65
Oc1cccc(/C=N/NC(=S)Nc2cccnc2)c1O	i	-0.55
COC(=O)c1cc(Br)c(=O)n(Cc2ccc(C(=O)O)cc2)c1	i	-0.05
COC(=O)c1ccc(NC(=O)N2CCOCC2)cc1	i	1
CCOC(=O)C1=C(C)NC(C)=C(C(=O)OCC)C1C(=O)OC1CCOC1=O (stereo not given)	i	-0.35
CC1CCCN(C/C(O)=C(\C#N)c2nc3ccccc3[nH]2)C1 (stereo not given)	i	-2.5
Cc1nn(Cc2ccccc2Cl)c(C)c1NC(=O)c1cc(-c2ccc(F)cc2)on1	i	1.1
CC(=O)COc1coc(CN2CCN(c3ccc(F)cc3)CC2)cc1=O	i	-0.43
COc1ccc(/C=N/NC(=O)c2cc(C3CC3)[nH]n2)cc1OC	i	-0.74
CCOC(=O)C(CC)Sc1nc2c(cnn2-c2ccc(F)cc2)c(=O)[nH]1 (stereo not given)	i	0.64
Cc1nn(C)c(C)c1NC(=O)Nc1ccc(Cl)c(Cl)c1	i	0.57

Screens as filed in PubChem.

Not all compounds are listed; count on the stated rates, not on these rows.
